UUG fidelity – modulators of yeast start codon fidelity, primary screen, whole organism, S. cerevisiae, single point, plate reader. activity score, % at 18.7 µM. S. cerevisiae UUG-firefly luciferase reporter, luminescence/redox ratio. 0.13% of 350,000 active. AID 602363, 2012;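 active means replicate mean at a twofold rise or more, about +100% in these data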;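 further: firefly luciferase made from a UUG start codon reports start codon fidelity; reporter light over untreated wells divided by growth signal over untreated wells; some hits fall short of that in this replicate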
MT1-MMP act inh – blockers of MT1-MMP proenzyme processing, primary screen, HT1080 RFP-PRO-GFP cells, GFP/RFP fluorescence. Matrix metalloproteinase-14 (Homo sapiens), P50281. 0.061% of 360,000 active. GFP/RFP ratio change, % at 20 µM. AID 651647, 2012. GFP/RFP ratio fluorescence, overnight; percent of plate control window, DMSO zero;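 active means GFP/RFP ratio change of at least 30% with cell ATP level not reduced by more than half and red fluorescence within 50% of control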; further: strong numbers were not always called active
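Material – HT1080 RFP-PRO-GFP cells · Control set – DMSO wells and RFP-L50D-GFP cells · Incubation – overnight cell settling, then overnight compound exposure, 37 °C, 5% CO2 · Compound dosing – single-point 20 µM compound, 1% DMSO · Read-out – GFP/RFP fluorescence ratio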
Rce1 inh – yeast Rce1p protease inhibitors, primary screen, biochemical, fluorescence, cell-free homogeneous | yeast membranes, quenched prenylated peptide cleavage fluorescence | AID 2563, 2010 | CAAX prenyl protease 2 (Saccharomyces cerevisiae (strain ATCC 204508 / S288c)), Q03530 | calls only | 0.27% of 290,000 active;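 active means fall in fluorescence gain of 50% or more versus controls, with final raw signal at or below 3038400; inconclusive means same 50% fall but final raw signal above 3038400; inactive means fall in fluorescence gain under 50%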;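 further: plate controls were neutral control wells for no effect and wells lacking membranes for full effect; tested at 10 µM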
Target sequence (Q03530 whole entry, looked up): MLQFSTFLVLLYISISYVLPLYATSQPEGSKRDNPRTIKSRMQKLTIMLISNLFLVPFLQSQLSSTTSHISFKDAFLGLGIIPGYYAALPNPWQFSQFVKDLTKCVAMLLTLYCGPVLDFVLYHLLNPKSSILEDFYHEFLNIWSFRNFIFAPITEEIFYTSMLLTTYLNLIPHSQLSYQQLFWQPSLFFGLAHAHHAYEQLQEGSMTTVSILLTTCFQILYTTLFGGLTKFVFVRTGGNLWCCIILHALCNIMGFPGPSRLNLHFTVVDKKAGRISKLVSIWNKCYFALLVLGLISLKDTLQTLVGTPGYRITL
Env fusion inh – inhibitors of HIV-1 Env-driven cell-cell fusion, primary screen, HeLa-JRFL effector, CEM21 target cells, luciferase | inhibition, % at 12.3 µM | 1.1% of 360,000 active | AID 651610, 2012;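 active means mean replicate inhibition score of at least 50 and every replicate individually at or above 50; inconclusive means only one of the two criteria met; inactive means mean below 50 and not all replicates reaching 50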;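 further: 0% = plate neutral controls and 100% = maraviroc near 300 nM; one replicate is shown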
CSC inhib – cancer stem cell viability inhibitors, primary screen, luminescence | cancer stem cell-like cells viability | inhibition, % at 7.5 µM | 1.1% of 300,000 active;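 active means mean at 75% or more and at least half the replicates too; inconclusive means mean and replicates disagree; tested in HMLE shEcad cells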;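 further: 0% = median of negative and 100% = median of positive control wells; the first replicate is given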
eIF4H FP inh – human eIF4H binding inhibitors, primary screen, translation initiation inhibitor project, biochemical, uHTS, fluorescence polarization | 0.94% of 290,000 active | eIF4H fluorescence polarization binding assay | Eukaryotic translation initiation factor 4H (Homo sapiens), Q15056 | AID 2012, 2009 | inhibition, % at 35 µM;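 active means 50% or more with normal probe brightness, or confirmed in later tests; inconclusive means above 50% with abnormal brightness, or retests that disagree; inactive means below 50% or failed in later tests; about a fifth of its hits are not listed in these tables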;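 further: calls also rest on retests at 20 µM and on dose response follow-up; 0% = protein and probe with vehicle and 100% = probe without protein; strong numbers were not always called active; many hits fall short of the cut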
PABP FP inh – PABP poly(A) RNA binding inhibitors, primary screen, biochemical, fluorescence polarization, uHTS. Polyadenylate-binding protein 1 (Homo sapiens), P11940. inhibition, % at 35 µM. 1% of 290,000 active;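 active means 50% or more with normal probe brightness, or confirmed in later tests; inconclusive means above 50% with abnormal brightness, or retests that disagree; inactive means below 50% or failed in later tests; about a fifth of its hits are not listed in these tables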;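 further: calls also rest on retests at 20 µM and on dose response follow-up; controls were probe without protein and protein plus probe with vehicle; some compounds called inactive have numbers as strong as hits; many hits fall short of the cut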
Target sequence (P11940 whole entry, looked up): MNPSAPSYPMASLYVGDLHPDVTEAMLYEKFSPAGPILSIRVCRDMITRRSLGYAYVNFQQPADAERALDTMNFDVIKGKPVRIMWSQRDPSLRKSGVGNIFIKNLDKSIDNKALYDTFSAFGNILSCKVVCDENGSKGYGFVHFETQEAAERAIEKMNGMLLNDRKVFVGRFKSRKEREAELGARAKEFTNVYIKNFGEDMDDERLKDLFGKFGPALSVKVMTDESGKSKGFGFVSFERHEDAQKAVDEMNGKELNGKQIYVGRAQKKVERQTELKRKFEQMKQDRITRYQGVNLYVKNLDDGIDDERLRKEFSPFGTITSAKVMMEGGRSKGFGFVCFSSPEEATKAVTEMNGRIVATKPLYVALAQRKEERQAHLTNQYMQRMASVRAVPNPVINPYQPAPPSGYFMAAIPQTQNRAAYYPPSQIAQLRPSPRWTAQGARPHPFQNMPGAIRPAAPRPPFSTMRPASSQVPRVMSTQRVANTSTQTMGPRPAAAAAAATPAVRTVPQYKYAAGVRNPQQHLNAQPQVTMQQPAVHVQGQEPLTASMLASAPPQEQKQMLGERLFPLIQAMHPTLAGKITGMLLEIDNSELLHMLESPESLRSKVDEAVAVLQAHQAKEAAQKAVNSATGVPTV
MT1-MMP act inh RFP – also measured in MT1-MMP act inh; calls as there; RFP signal change, %; measured here: RFP expression control read;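 0 = vehicle wells; hits needed this value within 50% of zero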
* hit, by the source's call; i = inactive; ? = inconclusive; / = no result given; + = active, no number.

SMILES	UUG fidelity	MT1-MMP act inh	MT1-MMP act inh RFP	Rce1 inh	Env fusion inh	CSC inhib	eIF4H FP inh	PABP FP inh
N#CC1=C(N)OC2=C(C(=O)CC(c3ccco3)C2)C1c1ccc(OCc2c(F)cccc2Cl)cc1 (stereo not given)	-5	-7	-3	i	/	44	-1	12
CCOC(=O)c1cnn(-c2ccccc2)c1-n1cccc1C(=O)C(=O)N(C)C	/	-6	4	i	23	13	3	11
CCOc1ccc2c(c1)C(=O)c1cc(OCC(=O)O)ccc1-2	-5	5	1	i	-19	-20	-6	14
NC(=O)N/N=C/c1ccc(-c2ccc(S(=O)(=O)Nc3ncccn3)cc2)o1	-13	4	1	/	2	/	/	/
Cc1cc(C)c2c(=O)[nH]n(C(C)C)c2n1	-2	-2	4	i	-20	-11	4	-10
Cn1c(Sc2ccc(Cl)cc2)c(C=O)c2ccccc21	-11	-21	-19	i	/	36	1	-6
CCCS(=O)(=O)N1CCN(C(=O)CCC2CCCC2)CC1	8	0	2	i	10	13	7	-2
Cc1cnc(C(=O)OCc2cc(=O)n3c(C)cccc3n2)cn1	-26	1	9	/	-35	0	/	/
CC[C@H](C)[C@@H]1NC(=O)c2cc([N+](=O)[O-])cc(I)c2NCC[C@@H](C(N)=O)NC(=O)[C@H](CCCN=C(N)N)NC1=O	/	/	/	/	1	-3	2	-12
CCOc1ccc(NCc2cccn2-c2nnc(N3CCC(C(=O)NCCCN4CCCCC4)CC3)s2)cc1	-18	-4	-3	i	11	15	-4	4
CC(C(=O)NCc1ccccc1)N(Cc1ccccc1Cl)C(=O)c1snc(C(N)=O)c1N (stereo not given)	25	3	-2	/	7	-8	-17	-7
Cc1ccc(NC(=O)C2C3C=CC4(O3)C2C(=O)N(CCCN2CCCC2)C4C(=O)NC2CCCCC2)cc1Cl (stereo not given)	-1	-2	-1	/	8	-13	-12	0
CCc1cccc(C)c1NC(=S)N(CCCN1CCN(C)CC1)Cc1cccs1	-6	1	2	i	-3	3	-4	0
COC(=O)C1CCN(C(=O)c2cc3c(=O)n4cccc(C)c4nc3n2Cc2ccccc2)CC1	/	-3	-10	i	14	2	-7	-15
CCN(CC)CC(=O)Nc1c(C)cc(C(C)(C)C)cc1C	5	4	0	i	/	/	-1	3
CCOc1cc(C2C3=C(CCCC3=O)N(CC(=O)O)C3=C2C(=O)CCC3)ccc1OC	-13	-3	5	i	-3	-7	6	7
CC(C)=CC(=O)N1CCC(n2nccc2NC(=O)CCc2ccccc2)CC1	-16	1	3	i	7	5	-4	5
COc1ccc(-c2nnc(SCC(=O)Nc3cc(F)ccc3C)o2)cc1	-8	4	3	i	-36	3	10	0
CC[C@H](C)/C=C/C1=CC2=C(Cl)C(=O)[C@@]3(C)OC(=O)C(C(=O)[C@H](C)[C@@H](C)O)=C3C2=CO1	-5	-3	11	i	/	-10	/	/
O=C(OCc1cn([C@H]2C[C@H](c3ccc(Cl)cc3)N(C(=O)c3cccs3)C[C@@H]2O)nn1)c1ccccc1	-12	0	3	/	-7	/	/	/
O=C(N/N=C/C1CC=CCC1)c1ccc(Cl)cc1O (stereo not given)	-7	3	6	i	-14	5	13	0
COCCNC(=O)CN1C(=O)COc2ccc(S(=O)(=O)N3CCCCCC3)cc21	/	-1	3	i	-12	/	4	-4
Cc1ccc(N2CC(C(=O)Nc3ccc4c(c3)OCO4)CC2=O)cc1 (stereo not given)	-8	-3	-2	i	?	-17	2	5
Cc1oc(/C=N/NC(=O)CC2(C)OCCO2)cc1Br	1	-5	2	i	10	-13	-7	1
NNC(=O)c1sccc1OCc1ccc(Cl)cc1	/	4	2	i	22	-12	-10	-5
The results go on.
SMILES	UUG fidelity	MT1-MMP act inh	MT1-MMP act inh RFP	Rce1 inh	Env fusion inh	CSC inhib	eIF4H FP inh	PABP FP inh
O=C(COc1ccc2c3c(c(=O)oc2c1)CCCC3)NCc1ccncc1	-15	-4	-4	i	-5	13	-5	7
Cc1ccccc1C(=O)O[C@H]1[C@H](Cc2ccccc2)NS(=O)(=O)[C@H]2CC3C=C[C@]12O3	-19	-4	-3	/	-10	-1	/	/
CCC1=C2CC[C@H]3C(=O)N(CC)C(=O)[C@H]3[C@H]2[C@@]2(Cc3ccccc3)C(=NCCOC)OC(=O)N2C1=O	-9	1	5	i	0	8	-7	5
CCOC(=O)C1=C(N)Oc2ccc3ccccc3c2C1c1cccnc1 (stereo not given)	-13	-1	-4	i	/	17	-6	-4
COc1cccc(CNc2ncnc3cc(Cl)ccc23)c1	/	4	-17	i	9	/	-12	14
CCC(=O)C1CCCN(C(=O)CCc2nnc(-c3ccc(C(C)=O)s3)o2)C1 (stereo not given)	-5	-2	0	i	-35	-3	-15	-9
Cc1ccc(S(C)(=O)=NC(=O)NC(=O)c2c(Cl)cccc2Cl)cc1 (stereo not given)	/	2	5	i	8	-13	3	1
CCCCN(CC)C(=O)Cn1c(=O)sc2ccccc21	-14	7	4	i	/	-9	-3	10
O=C(C1CCN(S(=O)(=O)c2ccccc2)CC1)N1CCCCCC1	-25	-3	1	i	4	-12	3	-7
COc1ccccc1-n1c(C)nnc1SCC(=O)Nc1cc(C)cc(C)c1	-9	6	5	i	56*	-3	7	-7
O=C(Cn1cnc2c(nnn2Cc2ccc(Cl)cc2)c1=O)NCC1CCCO1 (stereo not given)	-12	1	0	i	-6	-8	-7	-7
Cc1cccc(OCC(=O)N/N=C\C=C\c2ccc3c(c2)OCO3)c1C	8	1	2	i	/	7	-8	0
CCCc1ccc(OCC(O)CN2CCCC2)cc1 (stereo not given)	-2	-1	-1	i	4	9	-15	-7
CCOC(=O)Cn1cnc([N+](=O)[O-])n1	-15	-1	-3	i	-26	/	1	-4
O=C(CSc1cccc[n+]1[O-])c1cc2ccccc2o1	37	5	4	i	/	19	3	7
COc1ccc(S(=O)(=O)N2CCOCC2)cc1NC(=O)CN(C)Cc1c(F)cccc1Cl	/	-5	-15	i	18	-7	42	-4
CCOc1ccccc1NC(=O)N1CCC(NC(=O)c2cccc(C)c2)CC1	/	-1	2	i	-92	-10	17	17
O=C(O)CN1C(=O)S/C(=C\c2ccc3c(c2)OCO3)C1=O	/	6	4	i	-9	3	/	/
COc1ccc(CC(=O)OCC(=O)Nc2ccc(N3CCOCC3)cc2)cc1	/	4	-1	/	0	-3	-6	2
Cc1cc(C)cc(Nc2nc(-c3ccc(S(=O)(=O)N4CCCC4)cc3)cs2)c1	/	-14	-21	+	-15	15	-5	0
Cc1cccc(N2CCN(C(=O)CNC(=O)c3cccc([N+](=O)[O-])c3)CC2)c1C	-12	-1	-20	i	15	/	-4	-4
O=C(Nc1nnc(SCC(=O)N2CCCC2)s1)C1CC(=O)N(c2ccc(F)cc2)C1 (stereo not given)	-3	1	6	i	/	-8	10	4
O=C(NC1CCCCC1)n1c(=O)oc2ccc(Cl)cc21	/	0	3	i	/	-5	-6	0
CC(C)c1ccc(C2C(C#N)=C(N)Oc3c2oc(CO)cc3=O)cc1 (stereo not given)	/	-9	-2	i	0	0	10	-9
CN1CCN(CC(=O)N2c3ccccc3C(C)(c3ccccc3)CC2(C)C)CC1 (stereo not given)	/	-8	-3	i	/	0	1	-5

Some values from the list.
Cc1cccc(OCC(=O)N/N=C\C=C\c2ccc3c(c2)OCO3)c1C – UUG fidelity = 8
CCC(=O)C1CCCN(C(=O)CCc2nnc(-c3ccc(C(C)=O)s3)o2)C1 (stereo not given) – MT1-MMP act inh RFP = 0
COc1ccc(S(=O)(=O)N2CCOCC2)cc1NC(=O)CN(C)Cc1c(F)cccc1Cl – CSC inhib = -7

Single records (already shown):
CCOC(=O)Cn1cnc([N+](=O)[O-])n1 is listed as UUG fidelity = -15; MT1-MMP act inh = -1; MT1-MMP act inh RFP = -3; Rce1 inh = i; Env fusion inh = -26; CSC inhib = /; eIF4H FP inh = 1; PABP FP inh = -4
O=C(NC1CCCCC1)n1c(=O)oc2ccc(Cl)cc21 is listed as UUG fidelity = /; MT1-MMP act inh = 0; MT1-MMP act inh RFP = 3; Rce1 inh = i; Env fusion inh = /; CSC inhib = -5; eIF4H FP inh = -6; PABP FP inh = 0

The list continues:
SMILES	UUG fidelity	MT1-MMP act inh	MT1-MMP act inh RFP	Rce1 inh	Env fusion inh	CSC inhib	eIF4H FP inh	PABP FP inh
CCC(c1nnc(SCC(=O)Nc2ccc(C(C)=O)cc2)n1C1CCCCC1)N(C)C (stereo not given)	-23	1	-2	i	-3	-2	-12	24
CCC1(c2ccccc2)NC(=O)N(CC(=O)NCC2COc3ccccc3O2)C1=O (stereo not given)	-1	2	3	/	-1	/	/	/
CC(=O)Nc1nc(-c2ccc3c(c2)CCN3S(C)(=O)=O)cs1	2	1	7	i	-10	1	6	16
CCCCNc1c(-c2ccc(OC)c(SC3CCCCC3)c2)nc2ccc(Cl)cn12	-14	1	-9	/	34	37	/	/
CCNCCOC(c1ccccc1)c1ccccc1	-14	-5	-1	i	-41	-25	4	1
Fc1ccc(/C=N/NC(=S)NCCc2ccccc2)cc1F	-12	-3	2	i	1	1	-3	2
Nn1c(SCC(=O)NC2CCCc3ccccc32)nnc1C1CC1 (stereo not given)	7	-1	3	/	-6	-21	/	/
CCOc1ccc(CCNC(=O)CCc2c(C)nc3ncnn3c2C)cc1OCC	-24	-4	4	/	-94	-1	-18	-3
COc1ccccc1-c1nnc(NC(=O)c2ccc(S(=O)(=O)N3CCCC3)cc2)o1	2	6	-1	i	4	1	4	-7
Cn1c(SCC(=O)NNC(=O)Cc2ccccc2)nnc1-c1ccc(Cl)cc1	-35	-2	0	i	-67	-1	-3	0
COc1ccc(NC(=O)CN2C(=O)c3cccc4cccc2c34)cc1OC	/	6	1	/	29	-22	-6	3
N/C(CC(=O)Nc1ccc(F)cc1)=N\O	-12	2	6	i	-4	-2	-3	14
Cc1c(C(=O)NCc2ccc([N+](=O)[O-])cc2)sc(=O)n1Cc1ccc2c(c1)OCO2	-16	7	-11	/	8	/	/	/
CCOC(=O)c1cnc2c(C)c(Cl)ccc2c1NCCCN1CCOCC1	-22	-3	-5	i	-5	-3	-6	1
O=C1C(=O)c2ccccc2C(O)=C1CCCCl	-69	9	2	i	/	/	2	11
CCCn1c(N)c(N(CCOC)C(=O)CSc2ccccc2)c(=O)[nH]c1=O	-27	0	4	/	-4	1	/	/

Shown as a hit in Rce1 inh (from the list above):
Compound	UUG fidelity	MT1-MMP act inh	MT1-MMP act inh RFP	Rce1 inh	Env fusion inh
Cc1cc(C)cc(Nc2nc(-c3ccc(S(=O)(=O)N4CCCC4)cc3)cs2)c1	/	-14	-21	+	-15

Part of the list above, in CSV form:
Compound,UUG fidelity,MT1-MMP act inh,MT1-MMP act inh RFP,Rce1 inh,Env fusion inh,CSC inhib,eIF4H FP inh,PABP FP inh
CCC1=C2CC[C@H]3C(=O)N(CC)C(=O)[C@H]3[C@H]2[C@@]2(Cc3ccccc3)C(=NCCOC)OC(=O)N2C1=O,-9,1,5,i,0,8,-7,5
CCOC(=O)C1=C(N)Oc2ccc3ccccc3c2C1c1cccnc1 (stereo not given),-13,-1,-4,i,/,17,-6,-4
COc1cccc(CNc2ncnc3cc(Cl)ccc23)c1,/,4,-17,i,9,/,-12,14
CCC(=O)C1CCCN(C(=O)CCc2nnc(-c3ccc(C(C)=O)s3)o2)C1 (stereo not given),-5,-2,0,i,-35,-3,-15,-9

These rows are one share of the data; rates above refer to the full screens.
